MT1-MMP act inh = MT1-MMP (human) activation inhibition | HT1080 RFP-PRO-GFP cells, GFP/RFP ratio fluorescence, overnight; percent of plate control window, DMSO zero | GFP/RFP ratio change, % at 20 µM | 360,000 compounds, 0.061% hits | AID 651647;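 active = GFP/RFP ratio change of at least 30% with cell ATP level not reduced by more than half and red fluorescence within 50% of control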; also: strong numbers were not always called active
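Material: RFP-PRO-GFP reporter HT1080 cells. Dosing: single-point 20 µM compound, 1% DMSO. Controls: DMSO and RFP-L50D-GFP cell wells. Timing: cells overnight before dosing, compound overnight, 37 °C, 5% CO2. Measure: GFP/RFP fluorescence ratio.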
Yeast UUG start = modulators of start codon recognition fidelity in yeast; S. cerevisiae UUG-firefly luciferase reporter, luminescence/redox ratio; 350,000 compounds, 0.13% hits; activity score, % at 18.7 µM;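 active = replicate mean at a twofold rise or more, about +100% in these data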;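 also: firefly luciferase made from a UUG start codon reports start codon fidelity; reporter light over untreated wells divided by growth signal over untreated wells; some hits fall short of that in this replicate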
MT1-MMP act inh RFP = recorded beside MT1-MMP act inh, whose call it bears; RFP signal change, %; measured here: RFP expression control read;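 0 = vehicle wells; hits needed this value within 50% of zero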
Active calls of the source: *; & = joins results of further samples.

structure | Yeast UUG start | MT1-MMP act inh | MT1-MMP act inh RFP
CCN(CC(=O)Nc1c(F)cccc1F)C(=O)c1ccc(OCc2c(C)noc2C)cc1 | -8 | 7 | 4
CCC(=O)c1cn(CC(=O)Nc2ccc(F)cc2)c2ccccc12 | -30 | 6 | 2
CC(NC(=O)C1CCN(C(=O)Nc2ccccc2)CC1)c1ccccc1Cl (stereo unspecified) | -2 | 4 | 4
OC1COCOC1C(O)C1OCOCC1O (stereo unspecified) | 2 | -2 | 2
CC1(c2ccc(OC(F)F)cc2)NC(=O)N(CC(=O)NC2CCCC2)C1=O (stereo unspecified) | -27 | 8 | 4
CC(=O)c1ccc(N2CCN(C(=O)c3ccc(C(=O)c4ccccc4)cc3)CC2)cc1 | -8 | 0 | -14
Cc1ccc(NS(=O)(=O)c2ccc(C(=O)N3CCCCCC3)cc2)cc1 | -21 | 3 | -11
COc1cc(C(=O)N2CCN(S(=O)(=O)c3ccc(C)cc3)CC2)ccc1OCC(=O)N1CCOCC1 | -4 | -4 | 1
COC(=O)c1ccccc1NC(=O)COC(=O)Cc1ccc(S(=O)(=O)N2CCOCC2)s1 | -16 | -6 | 1
Cc1cc(=O)oc2cc(OCC(=O)Nc3c(C)n(C)n(-c4ccccc4)c3=O)c(Cl)cc12 | 4 | 2 | 1
COc1ccccc1[C@H]1C(c2cccc(Cl)c2)=NN(c2ccccc2)[C@@H]1CO | -10 | 3 | 3
CC(=O)Oc1ccc2c(c1)CCC1C2CCC2(C)C(OC(C)=O)CCC12 (stereo unspecified) | 12 | 2 | -2
NC(=O)c1ccc(SCC(=O)OCC(=O)NCc2cccs2)c([N+](=O)[O-])c1 | -8 | -3 | 0
C=CC(C)(C)c1c2occc2c(O)c2ccc(=O)oc12 | -19 | 5 | -10
CC(Sc1nc2ccccc2c(=O)n1C)C(=O)Nc1ccc2c(c1)OCCO2 (stereo unspecified) | -19 | 12 | -29
CCN1CCN(CCNC(=O)c2ccc3c(c2)NC(=O)/C(=C\c2cccc(Cl)c2)S3)CC1 | -3 | 5 | 2
CCN(CC)C(=O)c1cccc(-c2csc(C(C)(O)c3ccc(F)c(F)c3)n2)c1 (stereo unspecified) | -1 | 10 | -11
O=C(CCC(=O)c1ccc(F)cc1)OCc1nnc(-c2ccc([N+](=O)[O-])cc2)o1 | 2 | 3 | 3
CCN(CC)S(=O)(=O)c1ccc(O)c(NC(=O)COc2ccc(S(=O)(=O)N3CCOCC3)cc2)c1 | -9 | -4 | -16
CC1(c2ccccc2)CCC(=O)NC1 (stereo unspecified) | 12 | 5 | 8
Cc1cc(C(=O)OCC(=O)NC2(C#N)CCCCC2)c(C)o1 | 3 | -4 | 1
O=C(Cc1ccc(Cl)cc1)Nc1cccnc1Cl | -3 | -3 | -1
CCCCCCCCNS(=O)(=O)CCNC1CCCCC1 | -2 | 4 | 1
CCOc1ccc(Nc2ccc(S(=O)(=O)N3CCN(C)CC3)cc2[N+](=O)[O-])cc1OCC | 6 | 7 | -2
CCSc1ccc([C@@H]2[C@H]3C(=O)N(CC)C(=O)[C@H]3[C@]3(C(=O)OC)CCCCN23)cc1OC | -4 | -4 | -4
CN(CC(=O)Nc1ccccc1Cl)C(=O)Cn1cc(C(F)(F)F)ccc1=O | -5 | -2 | 0
COc1ccc(S(=O)(=O)N2CCOCC2)cc1NC(=O)COC(=O)CCS(=O)(=O)c1ccc(C)cc1 | -17 | 0 | 0
Cc1cc2c(cc1C)NC(C)CC(=O)N2 (stereo unspecified) | 8 | 2 | 4
Cc1sc2ncnc(N3CCC(C(=O)Nc4cc(C(F)(F)F)ccc4OCC(F)(F)F)CC3)c2c1C | -4 | -6 | -10
COc1cccc(N2CCN(CC(=O)Nc3ccccc3C(=O)NCc3ccccc3)CC2)c1 | 15 | 5 | -7

structure | Yeast UUG start | MT1-MMP act inh | MT1-MMP act inh RFP
COc1ccccc1C(=O)NCC(=O)N1CC=C(c2ccccc2)CC1 | 1 | -2 | -11
CC1CCC(NC(=O)COC(=O)c2cccnc2Cl)CC1 (stereo unspecified) | -1 | -4 | 1
CC1(C(=O)NS(=O)(=O)C2CC2)CCN(C(=O)c2ccccc2OC(F)(F)F)C1 (stereo unspecified) | -12 | -1 | 2
CC(=O)N1CCc2ccc([N+](=O)[O-])cc21 | -14 | 0 | 2
COc1ccc(NS(=O)(=O)c2cccc(C(=O)NNC(=O)CNC(=O)c3ccccc3Cl)c2)cc1 | -4 | -1 | 3
Cc1ccc2c(c1)CCCN2CC(=O)N(C)c1c(N)n(Cc2ccccc2)c(=O)[nH]c1=O | -1 | -111 | 2
CC[C@H](C)[C@@H](N)C(=O)NC[C@H]1O[C@@H](n2cnc3c(=O)[nH]c(N)nc32)[C@H](O)[C@@H]1O | -13 | 1 | 4
O=c1c2ccccc2oc2c1ccc1ccccc12 | -13 | -2 | 1
COc1ccc(S(=O)(=O)N2CCc3ccccc32)cc1C(=O)Nc1cc(S(C)(=O)=O)ccc1Cl | -14 | -4 | 5
CC(CNC(=O)CC[C@H]1O[C@@H](n2ccc(=O)[nH]c2=O)[C@H](O)[C@@H]1O)c1ccccc1 (stereo partly specified) | -17 | 2 | 8
CCN(c1ccc(NC(=O)CSCc2c(C)noc2C)cc1)C(C)C | -16 | 1 | 3
CC1(C)Oc2cc3oc(=O)ccc3c3c2C2C1CCC(C)(O3)C2O (stereo unspecified) | 1 | 4 | 7
Cc1cccc(C2=NN(c3ccc(Br)cc3)[C@@H](C(=O)N3CCOC3=O)[C@@H]2c2ccccc2)c1 | -4 | -2 | 0
O=C(CCCOc1ccccc1)Nc1cc(S(=O)(=O)N2CCOCC2)ccc1N1CCOCC1 | -5 | -2 | 1
CCN(C(=O)COC(=O)c1cccc2ccccc12)c1c(N)n(Cc2ccccc2)c(=O)[nH]c1=O | -5 | -8 | 1
CCC1([N+](=O)[O-])COC(c2ccc(C(C)C)cc2)OC1 (stereo unspecified) | -1 | 5 | 0
CC(Sc1nnc(C2CC2)n1C1CC1)C(=O)N(C)C1(C#N)CCCCC1 (stereo unspecified) | -6 | -2 | 4
O=C(Nc1ccn(CCCNCC(c2ccccc2)c2ccccc2)c(=O)n1)OCc1ccccc1 | 6 | 4 | -1
COc1ccccc1OCC(=O)OCc1cc(-c2ccco2)on1 | -4 | -3 | 2
Cc1ccc(S(=O)(=O)N2CCCCC2)cc1NC(=O)COC(=O)C1(C)CC1(Cl)Cl (stereo unspecified) | -3 | 2 | -3
CCOc1ccc(NC(=O)CN(C)C(=O)c2cccc(S(=O)(=O)N3CCN(C)CC3)c2)cc1OCC | -17 | -2 | 4
C[C@@H]1CN([C@H](C)CO)C(=O)CCCn2nncc2CO[C@H]1CN(C)S(=O)(=O)c1ccc(F)cc1 | -6&5 | 4 | 6
COc1cccc(C(C)(O)c2nc(-c3ccc(OC)nc3)cs2)c1 (stereo unspecified) | -3 | -3 | -23
COc1cc(C(=O)NC2CCN(C)CC2)ccc1Nc1ncc2c(n1)N(C1CCC(O)CC1)CCC(=O)N2C (stereo unspecified) | 11&-8 | 10 | 1
COc1ccc(C(=O)COC(=O)c2sc(C)nc2C)cc1OC | -24 | 5 | -4
COc1ccc(Br)cc1CN(C)C(=O)Cc1ccc(OC)c(S(=O)(=O)N2CCOCC2)c1 | -10 | 1 | -2
Cc1ccc(S(=O)(=O)N(C)CC(=O)NCC(c2ccc(F)cc2)N2CCOCC2)cc1 (stereo unspecified) | -9 | 0 | -3
COc1ccc(S(=O)(=O)N2CCN(C(=O)CN3C(=O)NC(C)(C)C3=O)CC2)cc1 | -12 | 0 | -1
Cc1ccn2c(Cc3ccccc3)c(-c3ccccc3)nc2c1 | 30 | -4 | -7
COc1ccc([C@H]2C[C@@H](O)[C@H](n3cc(C4CC4)nn3)CN2CC2CCCCC2)cc1 | -2 | 1 | 0

structure | Yeast UUG start | MT1-MMP act inh | MT1-MMP act inh RFP
O=C(O)c1ccccc1NS(=O)(=O)c1ccc(N/N=C/c2cccc(O)c2O)c([N+](=O)[O-])c1 | -2 | 19 | 3
O=C(CCNC(=O)c1ccc(Cl)cc1)NCCCN1CCOCC1 | -8 | -1 | 6
CC1(NC(=O)CN2CCN(c3cnn(-c4ccccc4)c(=O)c3Cl)CC2)CCS(=O)(=O)C1 (stereo unspecified) | 0 | 1 | 2
O=C(/C=C/CCc1ccc2c(c1)OCO2)N1CCCCC1 | -2 | 3 | 0
Cc1cccc(N2C(=O)C3CCCN3C2=S)c1C (stereo unspecified) | 13 | 5 | 3
CCOc1ccc(NC(=O)COc2ccc(-n3cnnn3)cc2)cc1 | 7 | 1 | -5
CCOC(=O)[C@H]1[C@H]2COc3ccc(Br)cc3[C@H]2N2C(=O)CN(Cc3ccc(Cl)cc3)C(=O)[C@@]12C | -14 | 3 | -5
O=C(CCCC(=O)NN=Cc1cccc(O)c1)NN=Cc1cccc(O)c1 | -26 | -1 | 5
CC(=O)c1c(C)[nH]c(C(=O)OCC(=O)c2c[nH]c3ccccc23)c1C | 9 | 1 | -5
COc1cc(/C=C/C(=O)OCC(=O)N2c3ccccc3NC(=O)C2(C)C)cc(OC)c1OC | -3 | 4 | -4
O=C(Nc1cccc(OC(F)(F)F)c1)c1cccc2c(-c3cccnc3)coc12 | -7 | 18 | -4
CN(C)S(=O)(=O)c1ccc(Cl)c(NC(=O)C2CCN(S(=O)(=O)c3cccs3)CC2)c1 | -20 | -1 | -6
O=C(NCC(O)c1nc2ccccc2[nH]1)c1cc2ccccc2[nH]1 (stereo unspecified) | -21 | 6 | 1
CCN(c1ccc(OC)cc1)S(=O)(=O)N1CCCC(C(=O)NCc2ccc(OC(C)C)cc2)C1 (stereo unspecified) | -19 | -5 | -18
O=C(COC(=O)COc1ccc2c(c1)CCC2)Nc1ccccc1 | -11 | -2 | 4
COc1ccc(C(=O)N2CCN(S(=O)(=O)c3ccc(C)cc3C)CC2)cc1S(=O)(=O)N1CCOCC1 | 18 | -2 | -2
C[C@@H]1CN([C@@H](C)CO)C(=O)CCCn2nncc2CO[C@@H]1CN(C)S(=O)(=O)c1cccc(C#N)c1 | -13&-2 | 0 | 3
Cc1cccc(CSc2nc3ccccc3c(=O)n2C)c1 | -8 | 1 | -23
O=C(NCC1CC1)c1cccc2c(-c3ccc(F)c(F)c3)coc12 | -6 | 0 | -2
C=CCn1c(SCC(=O)N(CC)C2CCS(=O)(=O)C2)nc2scc(-c3ccccc3)c2c1=O (stereo unspecified) | -15 | -3 | -4
CC(=O)c1ccccc1NC(=O)CN1C(=O)NC2(CCCCCCC2)C1=O | -9 | 3 | -1
CCN(CC(=O)Nc1ccc2c(c1)OCCO2)Cc1nc2cc(Cl)ccc2c(=O)[nH]1 | -5 | -7 | 0
CCCn1c(N)c(N(CCOC)C(=O)c2cc3c(s2)CCC(CC)C3)c(=O)[nH]c1=O (stereo unspecified) | -3 | 4 | 0
CCCOc1ccc(F)cc1-c1cc(C(=O)NCc2ccc(C(F)(F)F)cc2)[nH]n1 | -21 | -3 | 1
C[C@H]1Cn2cnc(C(=O)N[C@H](C)c3ccccc3)c2C(=O)N1 | -8 | 1 | 2
Cc1cc(C(=O)N2CC(C)CC(C)C2)c(C)o1 (stereo unspecified) | -7 | 0 | 2
CC(Sc1nc(N)cc(=O)[nH]1)C(=O)NCC(=O)Nc1ccc(F)c(F)c1F (stereo unspecified) | -19 | 1 | 4
COc1cccc(NC(=O)CN(C)C(=O)c2c(C)nn(CC(C)C)c2Cl)c1 | -6 | 1 | 3
OCCN(Cc1cccnc1)Cc1ccccn1 | -24 | 0 | 1

17 compounds out of the list, sorted by length of the SMILES, smallest number first.
structure | Yeast UUG start | MT1-MMP act inh | MT1-MMP act inh RFP
CC(=O)N1CCc2ccc([N+](=O)[O-])cc21 | -14 | 0 | 2
O=C(/C=C/CCc1ccc2c(c1)OCO2)N1CCCCC1 | -2 | 3 | 0
C=CC(C)(C)c1c2occc2c(O)c2ccc(=O)oc12 | -19 | 5 | -10
O=C(CCNC(=O)c1ccc(Cl)cc1)NCCCN1CCOCC1 | -8 | -1 | 6
O=C(NCC(O)c1nc2ccccc2[nH]1)c1cc2ccccc2[nH]1 (stereo unspecified) | -21 | 6 | 1
CC(=O)c1ccccc1NC(=O)CN1C(=O)NC2(CCCCCCC2)C1=O | -9 | 3 | -1
CC(=O)Oc1ccc2c(c1)CCC1C2CCC2(C)C(OC(C)=O)CCC12 (stereo unspecified) | 12 | 2 | -2
CC1(c2ccc(OC(F)F)cc2)NC(=O)N(CC(=O)NC2CCCC2)C1=O (stereo unspecified) | -27 | 8 | 4
CC1(C(=O)NS(=O)(=O)C2CC2)CCN(C(=O)c2ccccc2OC(F)(F)F)C1 (stereo unspecified) | -12 | -1 | 2
COC(=O)c1ccccc1NC(=O)COC(=O)Cc1ccc(S(=O)(=O)N2CCOCC2)s1 | -16 | -6 | 1
COc1cc(/C=C/C(=O)OCC(=O)N2c3ccccc3NC(=O)C2(C)C)cc(OC)c1OC | -3 | 4 | -4
Cc1cc(=O)oc2cc(OCC(=O)Nc3c(C)n(C)n(-c4ccccc4)c3=O)c(Cl)cc12 | 4 | 2 | 1
CN(C)S(=O)(=O)c1ccc(Cl)c(NC(=O)C2CCN(S(=O)(=O)c3cccs3)CC2)c1 | -20 | -1 | -6
COc1ccc(NS(=O)(=O)c2cccc(C(=O)NNC(=O)CNC(=O)c3ccccc3Cl)c2)cc1 | -4 | -1 | 3
COc1cc(C(=O)N2CCN(S(=O)(=O)c3ccc(C)cc3)CC2)ccc1OCC(=O)N1CCOCC1 | -4 | -4 | 1
O=C(O)c1ccccc1NS(=O)(=O)c1ccc(N/N=C/c2cccc(O)c2O)c([N+](=O)[O-])c1 | -2 | 19 | 3
CCOC(=O)[C@H]1[C@H]2COc3ccc(Br)cc3[C@H]2N2C(=O)CN(Cc3ccc(Cl)cc3)C(=O)[C@@]12C | -14 | 3 | -5

High-throughput results (PubChem BioAssay)

These rows are one share of the data; the hit share may differ from the screen's.
